# BJeLR lethal = kills HRASV12-expressing BJeLR cells; BJeLR (HRASV12) viability, CellTiter-Glo ATP luminescence, 48 h; reference of the scale not given here; inhibition, % (no concentration beside the values); hit rate 0.17% among 300,000; AID 1554;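 active means replicate mean above 50%; inconclusive means above 50% but judged a plate artefact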;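 further: 50 nL library stock added to about 25 µL; numbers are from one replicate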
# PrP 5UTR inh = inhibition of PrP 5' UTR reporter expression; cell-based PrP 5' UTR mRNA reporter, plate reader; inhibition, % (no concentration beside the values); hit rate 0.35% among 340,000;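 active means every replicate at 50% or more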;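 further: 0 = median of the neutral control wells; tested in H4 reporter cells; numbers are from one replicate; inactives centre near -14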
# Mtb hypoxia rep = Mtb hypoxia fluorescent reporter inhibition; M. tuberculosis hypoxia-regulated fluorescent reporter, fluorescence; fluorescence inhibition, % (test concentration not listed); hit rate 0.1% among 300,000; AID 1159583;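 active means 35 to 45% if threefold the growth effect, above 45% if 1.5-fold the growth effect; inactive means the rest, general growth blockers included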;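 further: wells of about 50 µL received 100 nL stock; 0% = vehicle wells and 100% = reference inhibitor wells; whole bacteria with a GFP reporter of the hypoxia response; strong numbers were not always called active; many hits fall short of the cut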
# Autofluor counter = flagged as autofluorescent in microsphere protease counterscreen | fluorescence intensity (test concentration not listed) | hit rate 3.1% among 360,000 | compound autofluorescence counterscreen, microsphere flow cytometry; hits give high values;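 active means at least 3 SD above the mean of all compounds, about 16000 in these data; inconclusive means too few beads counted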;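 further: 100 nL of 1 mM stock went into each well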
# RN4220 kill = S. aureus RN4220 growth inhibition; OD600, 16 h; inhibition, % (no concentration beside the values); hit rate 0.33% among 330,000;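 active means z-score of -3 or lower and OD600 up to 0.18 on both plates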;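 further: plate controls were untreated cells for no effect and reference antibiotic for full effect; stock transfer was 100 nL into about 80 µL; one replicate is shown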
# Sa ugtP lethal = compounds lethal to S. aureus RN4220 ugtP deletion mutant; growth inhibition, % (concentration not given with the values); OD600 growth, 16 h; some inactives read as strong as hits; hit rate 0.54% among 330,000;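 active means z-score under -3 and OD600 up to 0.15 on both plates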;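 further: plate controls were untreated wells for no effect and antibiotic for full effect; wells of about 80 µL received 100 nL stock; the first replicate is given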
# Mtb hypoxia rep growth = recorded beside Mtb hypoxia rep, whose call it bears; growth inhibition, %; measured here: M. tuberculosis growth (absorbance);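 0% = vehicle and 100% = reference antibiotic; read after six days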
# * hit, by the source's call; ? = inconclusive; nt = not tested or not shown.
SMILES,BJeLR lethal,PrP 5UTR inh,Mtb hypoxia rep,Mtb hypoxia rep growth,Autofluor counter,RN4220 kill,Sa ugtP lethal
CN(Cc1ccccc1)C(=O)c1ccc(NC(=O)C2CCN(C(=O)OC(C)(C)C)CC2)cc1,nt,-24,3,10,4010,3.1,3
COc1ccc(N(CC(=O)Nc2ccccc2C(=O)N2CCOCC2)S(=O)(=O)c2ccc(F)cc2)cc1,-10,7,7,3,2481,3.7,0
COc1ccc(-c2csc(NC(=O)CCS(=O)(=O)c3ccccc3)n2)c(OC)c1,-6,-10,-9,-6,3842,3.3,6
CCOC(=O)c1ccc[n+](C(C)C(=O)c2ccc(-c3ccccc3)cc2)c1 (configuration not stated),20,-17,5,2,2219,2.6,1
CN(C)/C=C/c1c(C#N)c(=O)ncn1Cc1ccccc1,6,-4,8,9,22585*,3.8,-7
COc1cc(OC)cc(-c2cc3nc(C4CCN(C(=O)OC(C)(C)C)CC4)cc(=O)n3[nH]2)c1,-4,-11,-6,6,8830,-3.9,-13
O=C(CCS(=O)(=O)c1ccccc1)Nc1nnc(-c2ccco2)o1,-3,-16,12,3,5750,2.7,0
O=[N+]([O-])c1cc(C(F)(F)F)ccc1NCCc1ccncc1,-4,-11,6,-4,2599,-0.7,2
CC(CN1CCCCC1)NC(=O)c1cc(-c2ccccn2)nc2ccc(Cl)cc12 (configuration not stated),27,-13,10,3,4629,3.6,6
CC(C)(C)NNC(=S)Nc1ccc(S(=O)(=O)N2CCOCC2)cc1,1,-37,4,3,4078,1.6,9
CCCCN(C(=O)c1ccco1)c1nnc(-c2cc(OC)c(OC)c(OC)c2)s1,-19,-10,1,0,3576,3.0,-5
CC(C)(C)c1[nH]ncc1[N+](=O)[O-],-2,-9,nt,nt,1982,nt,nt
O=C(N/N=C/c1ccco1)C1CC1(c1ccccc1)c1ccccc1 (configuration not stated),6,-15,nt,nt,7377,nt,nt
Cc1ccc(OCC(=O)NN=C2CC(=O)CC(C)(C)C2)c(Br)c1,nt,nt,7,1,nt,4.5,-1
O=C(O)C1Nc2c(O)cc(Cl)c([N+](=O)[O-])c2C2C=CCC12 (configuration not stated),-3,-25,18,2,2419,27,-20
Cc1ccc(CNC(=O)c2cc(S(=O)(=O)N3CCOCC3)cn2C)cc1,-3,-22,-1,2,4944,3.3,-4
CCOc1ccc(N2CC(NS(=O)(=O)c3cccnc3)CC2=O)cc1 (configuration not stated),-2,-8,6,3,nt,3.6,4
CC(C)(C)c1ccc(C(=O)NC(=S)NCc2ccco2)cc1,-11,-21,7,4,6222,-2.9,13
CCC(=NNC(=S)NC(C)C)c1ccc(OC(F)F)cc1,nt,nt,2,5,nt,1.8,19
CCN1CC2C3C(=O)N(Cc4ccccc4)C(=O)C3[C@](C)(C1=O)N2C(=O)c1ccc(C)cc1 (some centres not stated),nt,nt,21,7,nt,3.5,3
CCC1=C(OC(=O)N(CC)CC)N2C(=O)OC(=NCC3CC3)[C@]2(Cc2ccccc2)[C@H]2C1=CC[C@H]1C(=O)N(C)C(=O)[C@H]12,4,-16,nt,nt,3520,nt,nt
Brc1cc(/C=N/n2cnnc2)oc1Br,-1,-8,nt,nt,2479,nt,nt
CNC(=O)CSc1nnc(COc2ccc([N+](=O)[O-])cc2)n1C,5,-4,6,4,5080,0.7,4
CCOC(=O)C1C2COc3cc(OC)ccc3C2N2C(=O)N(c3ccc(Cl)cc3)C(=O)[C@@]12C (some centres not stated),nt,nt,5,-1,nt,4.1,0

# Sorted by number of heavy atoms (lowest first): part of the list above.
SMILES,BJeLR lethal,PrP 5UTR inh,Mtb hypoxia rep,Mtb hypoxia rep growth,Autofluor counter,RN4220 kill,Sa ugtP lethal
O=C(O)C1Nc2c(O)cc(Cl)c([N+](=O)[O-])c2C2C=CCC12 (configuration not stated),-3,-25,18,2,2419,27,-20
Cc1ccc(OCC(=O)NN=C2CC(=O)CC(C)(C)C2)c(Br)c1,nt,nt,7,1,nt,4.5,-1
CCOC(=O)C1C2COc3cc(OC)ccc3C2N2C(=O)N(c3ccc(Cl)cc3)C(=O)[C@@]12C (some centres not stated),nt,nt,5,-1,nt,4.1,0

# (listing goes on)
SMILES,BJeLR lethal,PrP 5UTR inh,Mtb hypoxia rep,Mtb hypoxia rep growth,Autofluor counter,RN4220 kill,Sa ugtP lethal
COc1ccc(OCCCC(=O)Nc2cc(S(=O)(=O)N3CCCCC3)ccc2OC)cc1,nt,-21,-4,1,3166,3.4,7
Cc1ccc(NC(=O)CSCC(=O)N2c3ccccc3CCc3ccccc32)cc1,9,-18,6,4,7715,-0.1,1
CCCc1cc(C(=O)Cc2ccc(C(=O)OCC)o2)c(O)cc1O,29,-5,nt,nt,4467,-6.3,-5
CCOC(=O)C1=C(C)OC(N)=C(C#N)C1c1cc(C)sc1C (configuration not stated),2,-15,5,0,2898,8.3,9
O=C1NCCCC1C(=O)Nc1ccccn1 (configuration not stated),-3,2,nt,nt,5037,2.0,4
Cc1noc(C)c1CSCC(=O)Nc1cc(Cl)ccc1N1CCCCC1,-10,-20,1,-15,4473,6.2,-5
CSCCC(NC(=O)c1ccccc1Br)C(=O)NNC(=O)c1ccncc1 (configuration not stated),nt,-35,27*,59*,7627,-2.2,3
CC(=O)N/C(=C/c1ccc2c(c1)OCO2)C(=O)NCc1ccccc1,4,-7,2,-5,3849,-2.0,1
CCNC(=S)NCc1ccc(F)cc1,9,6,3,-3,2298,1.4,7
C=CCN1C(=O)C(Cc2ccc(OC)cc2)SC1=NN=Cc1cccs1 (configuration not stated),nt,nt,4,5,nt,-11,-6
COc1ccccc1-n1nc(C(=O)NCc2ccco2)c2ccccc2c1=O,nt,-5,nt,nt,4358,2.5,-1
COc1ccccc1NC(=O)Nc1ccc(CC#N)cc1,3,-48,5,7,4422,4.9,11
Cn1c(=O)c2[nH]c(CN3CCCCC3)nc2n(C)c1=O,nt,-27,11,11,3999,2.3,1
Cc1c(C(=O)C(=O)N2CC=C(c3ccccc3)CC2)c2ccccc2n1C,28,-19,-2,1,2603,3.2,8
CCN(CC)c1ccc(NC(=O)c2ccccc2OCC(=O)OC)cc1,-2,-18,-14,5,2699,-3.2,1
Cc1cc(F)ccc1S(=O)(=O)N1CCCOC1CNC(=O)C(=O)NCCc1c[nH]c2ccccc12 (configuration not stated),-10,-2,5,1,2596,0.0,-3
CCOc1cccc(NC(=O)c2ccc(S(=O)(=O)N3CCCC3)cc2)c1,2,-19,4,8,5965,1.6,15
Cc1ccc(C2C(C(=O)c3cccs3)=C(O)C(=O)N2c2ccc(S(N)(=O)=O)cc2)cc1 (configuration not stated),-12,-16,8,-6,?,3.0,1
O=C1CN(CC(=O)Nc2cccc(Cl)c2Cl)c2ccccc2N1,2,-1,-3,1,5461,5.0,-1
O=C(NN=Cc1ccccc1)c1ccccc1-n1cccc1,nt,nt,8,5,nt,8.0,-7
CCOc1ccc(NC(=O)CN(C)C(=O)CCCn2c(=O)oc3ccccc32)cc1OCC,-1,-23,8,0,nt,0.5,1
CCN(CC)S(=O)(=O)c1cccc(-c2nnc(SCC(=O)NC)n2N)c1,7,-13,10,0,4238,3.2,1
COc1ccc(S(=O)(=O)N(C)CC(=O)Nc2ccc(C(N)=O)cc2)cc1OC,4,-24,12,6,3332,4.8,-1
Cn1c(=O)[nH]c2nncnc2c1=O,4,-30,-17,0,4831,4.2,-7
Cc1ccccc1NC(=S)N1CCN(Cc2ccccc2)CC1,4,-17,15,4,2017,5.8,-4
Cc1ccc(N2C(=O)N(CC(=O)Nc3ccccc3C(F)(F)F)C(=O)C2C)cc1 (configuration not stated),nt,-18,17,5,3781,1.3,6
O=C(NC1CCCCC1)C(c1ccncc1)N(C(=O)c1ccco1)c1ccc(F)cc1 (configuration not stated),4,-26,7,6,3703,3.0,5
N#Cc1c(NC(=O)C2CC(c3c(F)cccc3Cl)=NO2)sc2c1CCC2 (configuration not stated),-4,-31,9,4,2738,3.2,-4
COc1cc(NS(=O)(=O)c2ccc(NC(=S)NC(=O)c3cccs3)cc2)nc(OC)n1,15,-37,12,1,2177,11,27
Cc1ccc(C(=O)c2sc(Nc3ccccc3)c(C#N)c2N)cc1,0,9,4,2,2020,8.3,-3
CCOC(=O)c1cnc2nc(COc3ccccc3)[nH]n2c1=O,3,-27,-3,-2,6330,5.2,-11
O=C(CN1C(=O)NC2(CCCC2)C1=O)NCCc1ccccc1,nt,-19,6,6,4009,3.8,2
CNS(=O)(=O)c1cn(CC(=O)NCc2ccccc2OC)cc1S(=O)(=O)NC,2,-16,9,-3,4833,2.2,-4
O=C(c1ccc(F)cc1Cl)N1CCC2(CC1)OCCO2,-13,-17,10,13,3044,-1.7,11
COc1ccc(N2CCN(Cc3nc4scc(-c5ccccc5)c4c(=O)[nH]3)CC2)cc1,8,15,-4,7,2297,-2.9,5
COc1cccc(N(C(C)=O)C2=NCCCS2)c1,-2,-11,14,13,4238,0.0,7
Cc1cc(C)c2nc(-c3ccccn3)cc(C(=O)NCc3ccco3)c2c1,-4,-9,nt,nt,2832,-1.6,15
COc1ccc(C2CCCN2C(=O)Nc2ccccc2)cc1OC (configuration not stated),13,-9,-4,6,4318,1.6,9
O=C(/C=C/c1ccc(Cl)cc1)NC(=S)Nc1ccc(C(=O)O)cc1,-2,-17,-3,7,3757,5.3,8
O=S1(=O)CCO[C@H]2Cc3ccccc3[C@H]2N1Cc1ccccc1Br,2,-12,8,7,3915,14,1
COc1ccc(-c2c[n+]3c(n2-c2ccccc2)SCC3)cc1OC,0,-22,7,5,4158,3.1,7
COc1ccc(OC)c(C2C3=C(CCCC3=O)NC3=C2C(=O)CCC3)c1,-2,-9,nt,nt,3592,2.1,12
COC(=O)C1=C(C)NC(=O)NC1c1ccccc1 (configuration not stated),4,-6,8,7,23564*,3.4,3
O=S(=O)(N=C(Nc1ccccc1)C(F)(F)F)c1ccccc1,nt,nt,13,2,nt,2.4,6
O=C(Nc1ccccc1N1CCCCC1)c1ccco1,-2,-2,10,7,2702,2.3,-4
O=C1/C(=C/c2cccnc2)CCC/C1=C\c1cccnc1,nt,nt,nt,nt,nt,11,5
Cc1cc(C)nc(SCC(=O)N(C)C)n1,-4,-48,10,-4,4482,2.2,2
COc1cccc(O)c1CN1CCC(n2nccc2NC(=O)c2ccc3c(c2)OCO3)CC1,-2,-3,8,7,6942,1.2,2
COc1ccc(S(=O)(=O)Nc2cc(Cl)ccc2-n2cncn2)cc1,nt,-14,6,5,3007,81,51
CC(CN1CCN(C)CC1)OC(=O)c1cccc(F)c1 (configuration not stated),4,-31,4,10,4117,-1.2,8
Cc1ccc(C(=O)NNC(=O)CCCN2C(=O)/C(=C/c3ccccc3Cl)SC2=S)cc1,-4,-10,nt,nt,8706,nt,nt
CCN1CCN(c2ncnc3sc(C)c(-c4ccccc4)c23)CC1,7,-16,20,6,3734,3.1,1
O=c1c2ccccc2nc2n1CCN2,-3,-19,17,9,11133,5.4,12
O=C(NCCN1CCCC1)c1ccc2c(=O)n(CCc3ccccc3)c(=O)[nH]c2c1,-1,-25,13,12,4393,3.1,-6
CCOc1ccc(N(CC(=O)N2CCCCCC2)S(C)(=O)=O)cc1,7,-20,9,2,3745,5.7,9
COc1ccc(NC(=O)C(NC(C)=O)C(=O)Nc2ccc(F)cc2)cc1 (configuration not stated),9,-12,15,1,3949,1.7,0
Cc1ccc(C)c(S(=O)(=O)N2CCN(C(=O)c3ccccn3)CC2)c1,nt,-10,3,11,8841,2.3,9
O=C(COc1ccc([N+](=O)[O-])cc1)Nc1ccc2c(c1)OCO2,-3,4,1,-14,3996,1.1,-1
Cc1ccc(OCC(=O)N2CCCCCC2)c(C)c1,0,nt,18,4,11349,9.6,6
FC(F)(F)c1cnc(Nc2ccc(N3CCOCC3)cc2)c(Cl)c1,-6,4,14,13,3068,5.7,-1

# (list continues)
SMILES,BJeLR lethal,PrP 5UTR inh,Mtb hypoxia rep,Mtb hypoxia rep growth,Autofluor counter,RN4220 kill,Sa ugtP lethal
Cn1c(C(=O)O)c(CC(=O)Nc2ccc(F)cc2F)c2ccccc21,-1,-17,9,1,2682,0.3,11
O=C(CCCc1ccccc1)NC12CC3CC(CC(C3)C1)C2,-3,-74,15,7,3204,-5.0,18
NC(=O)C1(c2ccccc2)OC1c1ccccc1 (configuration not stated),5,-14,nt,nt,3916,nt,nt
CCOc1ccc(-n2c(SCC(=O)NC)nnc2-c2ccco2)cc1,-16,-11,4,2,3982,4.9,15

# Source: PubChem (several laboratories)
